# Screens (PubChem)
# PrP 5UTR inh – suppresses PrP 5' UTR mRNA reporter expression; cell-based PrP 5' UTR mRNA reporter, plate reader; inhibition, % (no concentration beside the values); actives 0.35% (n = 340,000); AID 488862;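 active = every replicate at 50% or more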;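 also: 0 = median of the neutral control wells; tested in H4 reporter cells; numbers are from one replicate; inactives centre near -14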
# Bead autofluor – compound fluorescence in toxin protease inhibitor counterscreen | compound autofluorescence counterscreen, microsphere flow cytometry; stronger effect = higher value | fluorescence intensity (test concentration not listed) | actives 3.1% (n = 360,000) | AID 624483;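 active = at least 3 SD above the mean of all compounds, about 16000 in these data; inconclusive = too few beads counted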;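 also: 100 nL of 1 mM stock went into each well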
# Sa RN4220 lethal – kills Staphylococcus aureus RN4220. actives 0.33% (n = 330,000). AID 1259311. inhibition, % (test concentration not listed). S. aureus RN4220 growth, OD600, 16 h;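 active = z-score of -3 or lower and OD600 up to 0.18 on both plates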;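 also: plate controls were untreated cells for no effect and reference antibiotic for full effect; stock transfer was 100 nL into about 80 µL; one replicate is shown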
# BJeLR lethal – kills HRASV12-expressing BJeLR cells; inhibition, % (concentration not given with the values); BJeLR (HRASV12) viability, CellTiter-Glo ATP luminescence, 48 h; reference of the scale not given here; actives 0.17% (n = 300,000);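 active = replicate mean above 50%; inconclusive = above 50% but judged a plate artefact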;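 also: 50 nL library stock added to about 25 µL; numbers are from one replicate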
# Sa ugtP lethal – compounds lethal to S. aureus RN4220 ugtP deletion mutant | AID 1259309 | actives 0.54% (n = 330,000) | OD600 growth, 16 h; some inactives read as strong as hits | growth inhibition, % (concentration not given with the values);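 active = z-score under -3 and OD600 up to 0.15 on both plates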;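 also: plate controls were untreated wells for no effect and antibiotic for full effect; wells of about 80 µL received 100 nL stock; the first replicate is given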
# Mtb hypoxia inh – Mtb hypoxia fluorescent reporter inhibition; actives 0.1% (n = 300,000); fluorescence inhibition, % (no concentration beside the values); AID 1159583; M. tuberculosis hypoxia-regulated fluorescent reporter, fluorescence;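 active = 35 to 45% if threefold the growth effect, above 45% if 1.5-fold the growth effect; inactive = the rest, general growth blockers included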;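 also: wells of about 50 µL received 100 nL stock; 0% = vehicle wells and 100% = reference inhibitor wells; whole bacteria with a GFP reporter of the hypoxia response; strong numbers were not always called active; many hits fall short of the cut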
# Mtb hypoxia inh growth – also measured in Mtb hypoxia inh; calls as there; growth inhibition, %; measured here: M. tuberculosis growth (absorbance);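 0% = vehicle and 100% = reference antibiotic; read after six days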
# Active calls of the source: *; ? = inconclusive; · = no result given.
SMILES,PrP 5UTR inh,Bead autofluor,Sa RN4220 lethal,BJeLR lethal,Sa ugtP lethal,Mtb hypoxia inh,Mtb hypoxia inh growth
CCOC(=O)c1ccc(N2CCN(C(=O)c3ccccc3)CC2)c(NC(=O)c2ccco2)c1,-18,5020,-1.9,1,7,-13,-1
Cc1ccc2oc(C(=O)NCCCN3CCOCC3)c(C)c2c1,-69,5110,2.0,-4,8,3,4
CCOc1ccc(-n2ccc(=O)c(C(=O)Nc3ccc(S(=O)(=O)Nc4nccs4)cc3)n2)cc1,-7,4617,·,8,·,·,·
Cn1nccc1NS(=O)(=O)c1ccc(NC(=O)C(F)(F)F)cc1,-11,3343,0.3,-6,17,·,·
C[C@H](NC(=O)Nc1ccccc1F)C(=O)O,-13,8519,2.1,-3,-1,-7,-5
COC(=O)NN=Cc1c(C)nn(-c2ccccc2)c1Cl,·,·,3.9,·,-6,-10,-8
COc1ccc(C(C)=O)cc1COC(=O)c1cc2ccccc2cc1O,-19,2959,-0.9,-16,-5,1,-5
CC(C)CSc1nc2ccccc2n1CC(=O)O,-24,3619,4.3,6,-6,7,11
CCc1n[nH]c2c1/C(=N\O)CC(C)(C)C2,-20,2201,·,-1,·,·,·
CCOC(=O)/C(C#N)=C1/C=CN(c2ccccc2)C=N1,-20,4666,0.8,2,4,·,·
CCCCCn1c(=O)c(C(=O)OCC)c(Cl)c2ccccc21,-11,?,3.3,-2,17,6,5
Cc1ccc(C)c(NC(=O)CCC(=O)N/N=C/c2ccc[nH]2)c1,-7,21086*,·,-6,·,·,·
COc1ccc(O)c(C(=O)c2cnn(-c3ccccn3)c2)c1,-17,4427,2.9,4,5,15,2
CCOC(=O)C1=C(C)N(C)C(=O)NC1c1c(OC)ccc2ccccc12 (stereo unspecified),-23,3330,6.4,-5,2,7,3
CN(C)CC1CCCCC1OC(=O)c1ccc(Cl)cc1Cl (stereo unspecified),-1,2624,4.1,-4,4,15,5
Cc1cc(C)cc(NC(=O)NNC(=O)c2cc3occc3[nH]2)c1,9,5765,-0.5,2,-3,3,-1
O=C(NN=C/C(Br)=C/c1ccccc1)c1ccncc1,·,·,17,·,-2,20,8
CCN(N=Nc1cccc([N+](=O)[O-])c1)c1cccc([N+](=O)[O-])c1,-18,5832,4.7,2,1,15,5
O=C(O)CCN=Cc1c(O)c2ccccc2oc1=O,1,2561,10,-8,7,5,7
S=C(NN=C1CCN(Cc2ccccc2)CC1)NC1CCCCC1,-14,4638,-0.8,2,1,3,5

# Pulled by structure from the list above (2):
SMILES,PrP 5UTR inh,Bead autofluor,Sa RN4220 lethal,BJeLR lethal,Sa ugtP lethal,Mtb hypoxia inh,Mtb hypoxia inh growth
Cc1ccc(C)c(NC(=O)CCC(=O)N/N=C/c2ccc[nH]2)c1,-7,21086*,·,-6,·,·,·
CN(C)CC1CCCCC1OC(=O)c1ccc(Cl)cc1Cl (stereo unspecified),-1,2624,4.1,-4,4,15,5

# Complete entries, looked up by structure. Screens in order: PrP 5UTR inh, Bead autofluor, Sa RN4220 lethal, BJeLR lethal, Sa ugtP lethal, Mtb hypoxia inh, Mtb hypoxia inh growth
# O=C(O)CCN=Cc1c(O)c2ccccc2oc1=O reads 1, 2561, 10, -8, 7, 5, 7
# Cc1ccc(C)c(NC(=O)CCC(=O)N/N=C/c2ccc[nH]2)c1 reads -7, 21086*, ·, -6, ·, ·, ·
# COc1ccc(O)c(C(=O)c2cnn(-c3ccccn3)c2)c1 reads -17, 4427, 2.9, 4, 5, 15, 2
# CCN(N=Nc1cccc([N+](=O)[O-])c1)c1cccc([N+](=O)[O-])c1 reads -18, 5832, 4.7, 2, 1, 15, 5
# Cc1cc(C)cc(NC(=O)NNC(=O)c2cc3occc3[nH]2)c1 reads 9, 5765, -0.5, 2, -3, 3, -1

# Further records:
SMILES,PrP 5UTR inh,Bead autofluor,Sa RN4220 lethal,BJeLR lethal,Sa ugtP lethal,Mtb hypoxia inh,Mtb hypoxia inh growth
FC(F)(F)c1cc(CCN2CCNCC2c2ccccc2)cc(C(F)(F)F)c1 (stereo unspecified),·,·,-8.0,·,0,22,18
Cc1ccc(C2=CC(C)(c3ccc(C)cc3)Nc3nc(C(F)(F)F)nn32)cc1 (stereo unspecified),-24,2582,-6.7,-7,-19,-5,-5
COc1ccc(NC(=O)CSc2[nH]c(=O)cc(C)c2C#N)cc1OC,-20,7515,5.2,-6,-6,8,3
O=C(NCCc1ccccc1)C(=O)NCC1OCCCN1S(=O)(=O)c1cc(F)ccc1F (stereo unspecified),-2,4970,6.0,-9,17,7,-2
O=C(NCc1ccccc1)c1onc(CSc2ccc(Cl)cc2)c1C(=O)NCC1CC1,-18,4235,-4.5,-2,-6,2,-2
Cc1cccc(Oc2ncnc(N)c2[N+](=O)[O-])c1C,-10,2611,2.5,8,3,2,2
CCOC(=O)C1=C(CSc2nc(-c3ccncc3)ccc2C#N)OC(N)=C(C#N)C1c1ccc(OC)cc1 (stereo unspecified),-13,2536,6.5,-2,-11,·,·
N#CC1=C(N)Oc2c(oc(CO)cc2=O)C12C(=O)Nc1ccc(Cl)cc12 (stereo unspecified),-6,7112,3.4,-6,13,8,3
COc1ccccc1C(CNC(=O)CNC(=O)c1ccccc1Cl)N1CCCC1 (stereo unspecified),-21,9231,0.6,·,-3,-4,2
c1ccc(CN2CCN(c3nc(-c4ccccc4)nc4ccccc34)CC2)cc1,-33,4035,2.5,-2,35,-5,14

# Five entries from above, tab-delimited.
smiles	PrP 5UTR inh	Bead autofluor	Sa RN4220 lethal	BJeLR lethal	Sa ugtP lethal	Mtb hypoxia inh	Mtb hypoxia inh growth
FC(F)(F)c1cc(CCN2CCNCC2c2ccccc2)cc(C(F)(F)F)c1 (stereo unspecified)	·	·	-8.0	·	0	22	18
Cc1ccc(C2=CC(C)(c3ccc(C)cc3)Nc3nc(C(F)(F)F)nn32)cc1 (stereo unspecified)	-24	2582	-6.7	-7	-19	-5	-5
COc1ccc(NC(=O)CSc2[nH]c(=O)cc(C)c2C#N)cc1OC	-20	7515	5.2	-6	-6	8	3
O=C(NCCc1ccccc1)C(=O)NCC1OCCCN1S(=O)(=O)c1cc(F)ccc1F (stereo unspecified)	-2	4970	6.0	-9	17	7	-2
O=C(NCc1ccccc1)c1onc(CSc2ccc(Cl)cc2)c1C(=O)NCC1CC1	-18	4235	-4.5	-2	-6	2	-2

# Following part.
SMILES,PrP 5UTR inh,Bead autofluor,Sa RN4220 lethal,BJeLR lethal,Sa ugtP lethal,Mtb hypoxia inh,Mtb hypoxia inh growth
CCNC(=S)N(Cc1ccccc1)Cc1nc2ccccc2c(=O)[nH]1,-14,8910,20,-3,0,9,2
CC(C)(C)c1nc(NCCO)c2nnn(Cc3ccccc3)c2n1,-8,3855,7.2,-3,10,11,4
O=C(Nc1ccc(Cl)c(Cl)c1)N1CC=CCC1,-13,2546,-7.7,1,-22,·,·
Cc1cc(C)cc(NC(=O)C2CCCN(c3nccc(C)n3)C2)c1 (stereo unspecified),-1,16127*,-0.7,-4,-2,3,11
NC(=O)c1ccccc1NC(=O)C(c1ccccc1)c1ccccc1,-16,6498,2.2,3,2,4,4

# Outcome played no part in choosing rows; about 4% have a hit in one of these screens.
